NPYLR7 ag: activates Aedes aegypti NPYLR7 receptor; 270,000 tested, 0.15% active; activation, % at 10 µM; HEK293T NPYLR7/Galpha15, GCaMP6s calcium fluorescence; in the data active = activation above about 40%;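 note: 0% = vehicle and 100% = reference agonist at the receptor; some compounds past the cut are filed as inactive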
NPYLR7 ag max-min: second read-out of NPYLR7 ag, no call of its own (marks repeat the call); activation, %; measured here: Max-Min RFU normalised activation; some inactives read as strong as hits;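 span of the calcium signal over five minutes; 0% = vehicle and 100% = native peptide agonist; compound fluorescence can raise it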
Active calls of the source: *; & = joins results of further samples. This is a subset. The share of hits here may be higher or lower than overall.

SMILES	NPYLR7 ag	NPYLR7 ag max-min
COc1cc(OC)nc(C(NC(=O)C2CCN(Cc3ccc(Oc4ccccc4)cc3)CC2)c2ccc(Cl)cc2)n1 (stereo not drawn)	-12	-11
Cc1ccc(NC(=O)c2ccccc2Br)nc1	3	1
Fc1ccc(Nc2ccc3ccccc3n2)cc1Cl	9&-7	13&-9
O=S(=O)(c1ccccc1F)N1CCN(Cc2cc(-c3ccccc3)no2)CC1	1	3
CCCCNS(=O)(=O)c1ccc2c(c1)[nH]c(=S)n2CCCC	-1	1
Cc1cc(OCC2CN(C(=O)C(C)NC(=O)OCc3ccccc3)CCO2)ccc1Cl (stereo not drawn)	4	13
CCN(CC)c1ccc(C(=O)OC2CC(C)OC2=O)c(O)c1 (stereo not drawn)	1	-1
COc1cc(C=CC(=O)N2CCc3ccccc32)cc(OC)c1	-2	-4
Cc1ccc(CN(C)CC(=O)Nc2ccc(N3CCCC3=O)cc2)c(C)c1	-7	-7
O=C(c1ccco1)C(C(c1cccc(Cl)c1)N1CCOCC1)N1CCOCC1 (stereo not drawn)	-3	0
Cc1nc(=O)[nH]c(C)c1CCC(=O)N1CC[C@@](C)(O)[C@@H](Cc2ccccc2)C1	0	-1
N#CC1CCN(C(=O)NCC(c2cccs2)c2c[nH]c3ccccc23)CC1 (stereo not drawn)	-5	-8
CCN(CC)CCNC(=O)c1cc(-c2ccc(OC)c(OC)c2)nc2ccccc12	0	-3
O=C(NCc1ccncc1)c1ccc(CSc2nnc(-c3ccncc3)n2-c2cccc(C(F)(F)F)c2)cc1	25	23
COCCS(=O)(=O)NC(C)C12CC3CC(CC(C3)C1)C2 (stereo not drawn)	0	-3
CCCCOc1ccc(/C=C2N=C(/C=C/c3ccccc3)OC/2=O)cc1	-4	-6
CCOC(=O)CC1C(C(=O)OCC)=[N+]([O-])OC1C(=O)OCC (stereo not drawn)	-3	6
O=C(c1ccccc1NCc1cccs1)N1C[C@H]2CC[C@H]1C2	7	6
Cc1oc(-c2cccc(Cl)c2)nc1CN1CCSCC1	17	5
O=C(COC(=O)C=Cc1ccc(I)o1)NC1CCCCC1	-1	-2
CCCOCC1CCN(C(=O)c2cccc(CC3CCNCC3)c2)C1 (stereo not drawn)	5	6
Cc1cc(=O)n(C)c(=O)n1CCCCO	4	3
O=S(=O)(NCCOc1ccc(-c2cccs2)nn1)c1ccccc1	-3	-4
COCC(C)NC(=O)c1cc(-c2ccc(F)cc2)nc2c1c(C)nn2C1CCS(=O)(=O)C1 (stereo not drawn)	2	7
COCCNC(=O)Cn1nc2c(c1NC(=O)COc1ccc(F)cc1)CSC2	-4	3
CC(Cn1cnc2ccccc21)C(=O)NN=Cc1ccccc1 (stereo not drawn)	9	2
COc1ccc(CCNC(=O)c2cnc3c(-c4ccc(C(C)C)cc4)cnn3c2C)cc1OC	14	21
CC[n+]1c(C=CN(C)C)sc2ccccc21	-9	-17
C=CCC(O)(CC=C)c1ccc(CN(CCOC)Cc2cccc(F)c2)o1	11	13
CC(=O)N[C@@H]1C[C@H](CC(C)C)O[C@H](c2ccc(Oc3ncccn3)cc2)C1	6	5
Cc1ccncc1C(=O)Nc1ccccc1OCCOc1ccccc1	-8	-14
COc1ccc(O)c(/C=N\Nc2nc(N3CCOCC3)nc(N3CCOCC3)n2)c1	-5	-14
CCCCCCn1c(=O)c2c(nc3n(C(C)C)c(C)c(C)n23)n(C)c1=O	-8	-11
CC1(C(=O)NCc2cccc3ccccc23)CCN1CCCc1ccccc1 (stereo not drawn)	3	3
Cc1cccc(C)c1N1C(=O)c2ncccc2C1CCOc1cccc(C(=O)O)c1 (stereo not drawn)	2	11
CC(C)c1ccc(-n2cc(CN3C[C@H](O)[C@@H](N4CCN(C)CC4)C3)cn2)cc1	-2	-3

The final 4 entries of the part before lead into the next.
SMILES	NPYLR7 ag	NPYLR7 ag max-min
CCCCCCn1c(=O)c2c(nc3n(C(C)C)c(C)c(C)n23)n(C)c1=O	-8	-11
CC1(C(=O)NCc2cccc3ccccc23)CCN1CCCc1ccccc1 (stereo not drawn)	3	3
Cc1cccc(C)c1N1C(=O)c2ncccc2C1CCOc1cccc(C(=O)O)c1 (stereo not drawn)	2	11
CC(C)c1ccc(-n2cc(CN3C[C@H](O)[C@@H](N4CCN(C)CC4)C3)cn2)cc1	-2	-3
Cc1cc(=O)[nH]c(-n2ncc(C(=O)Nc3ccc4c(c3)OCCO4)c2C)n1	-1	-1
Cc1cc(C)c(CNS(=O)(=O)c2ccc(S(N)(=O)=O)cc2)c(C)c1	14	10
CN1C[C@@H](NC(=O)N2CCOCC2)C[C@H]1C(=O)NCC1(O)CCCCC1	-7	-12
COc1ccc(Nc2nc(-c3ccc(C)cc3)nc3ccccc23)cc1	-4	8
O=C(NC1CC1)c1cc2n(n1)CCN(C(=O)CCn1nnc3ccccc31)C2	7	6
Cc1ccc(-c2nc3ccc(C)cn3c2NC(=O)C(C)(C)C)cc1	-4	-5
NC1=NC(c2ccccc2)N2C(=N1)Sc1ccccc12 (stereo not drawn)	7	2
Cc1ccc(N(CC(=O)N2CCC(C)CC2)CC(=O)N2CCC(C)CC2)cc1Cl	1	0
Cc1ccc(CCNc2ccccc2)c[n+]1[O-]	2	5
CCN(Cc1ccccc1)C(=O)CCc1nnc(Cc2ccc3c(c2)OCO3)o1	13	2
O=C(Nc1ccc(-n2cccc2)cc1)C1=CN2CCN(Cc3cscn3)C(=O)N=C2O1	5	2
Cc1ccc(C(=O)N(C)CC(=O)Nc2c(Cl)cccc2Cl)n1C	1	-2
Cc1ccc(NC(=O)C(=O)N(C)Cc2snnc2C)c(C)c1	7	4
COc1cc(N=c2scc(-c3ccccc3)n2-c2ccc(Cc3ccccc3)cc2)cc(OC)c1	-9	-15
CN(Cc1cc(-c2ccncc2)no1)Cc1ccc(CO)o1	3	0
N#C/C(=C\c1cccc(Cl)c1Cl)c1nn(CCO)c(N)c1C#N	5	3
Cc1ccc(C2(O)CCN(C(=O)CCc3nc4ccccc4[nH]3)CC2)nc1	5	1
Cc1ccc(Cl)cc1-n1c(CNC(=O)NC23CC4CC(CC(C4)C2)C3)nnc1SCc1ccccc1	3	4
Cc1ccc(SCCN(C)Cc2nc(C)ccc2O)cc1	-1	-2
COc1cc(CN2CCn3nc(C(=O)NCc4ccccn4)cc3C2=O)cc(OC)c1	-4	-1
Cc1ccsc1CN(Cc1ccc(F)cc1)C(=O)CN(C(=O)Nc1cccc(C(F)(F)F)c1)C1CC1	1	11
CC(C)(C(=O)N1CCC1(C)C(=O)NS(=O)(=O)c1ccc(C#N)cc1)c1ccccc1 (stereo not drawn)	1	-1
Clc1cc(CSc2nnnn2C2CC2)cc2c1OCCCO2	1	7
Cn1cc(/C=C2\SC(=Nc3ccccc3)NC2=O)c2ccccc21	-6	-11
Cc1cc(C)n(CC(C)NCc2n[nH]c3c2CCC3)n1 (stereo not drawn)	8	0
Cc1c(C(=O)N2CCN(CC(OCc3ccc(C#N)cc3)c3cccc(N4CCCC4)c3)CC2)oc2ccccc12 (stereo not drawn)	4	3
CCS(=O)(=O)c1ncc(CN(C)Cc2nc3c(s2)CCCC3)n1CCOC	3	3
Fc1cccc(Cn2cc(Br)cn2)c1F	2	-1
O=C(CCc1nnc(-c2cccc(C(F)(F)F)c2)o1)Nc1ccccc1	3	10
CCN1C(=O)C2C(C1=O)N1C(c3ccccc3)C3C(=O)N(CC)C(=O)C3N1C2c1ccccc1 (stereo not drawn)	1	0
CC(=O)Nc1cccc(-c2ccnc3c2CC(C(=O)NCc2ccco2)O3)c1 (stereo not drawn)	-3	-4
COc1ccc(/C=C2\C(=N)N3N=C(Cc4cccs4)SC3=NC2=O)cc1Br	-3	-4
CC(Nc1ccc(C#N)cc1)c1ccncc1 (stereo not drawn)	-1	-2
O=S(=O)(c1ccc(/C=C/c2ccc(N3CCOCC3)cc2)s1)N1CCCC1	5	3
CC(C)C[C@H](NC(=O)[C@@H](O)[C@H](N)Cc1ccccc1)C(=O)O	-4&7	-6&-10
Cc1ccsc1C(=O)N(C)C1CCCN(CCc2ccccc2)C1 (stereo not drawn)	4	2

Among those listed so far, these contain bromine.
SMILES	NPYLR7 ag	NPYLR7 ag max-min
Cc1ccc(NC(=O)c2ccccc2Br)nc1	3	1
Fc1cccc(Cn2cc(Br)cn2)c1F	2	-1
COc1ccc(/C=C2\C(=N)N3N=C(Cc4cccs4)SC3=NC2=O)cc1Br	-3	-4

Part of the list above in order of SMILES length, high to low.
SMILES	NPYLR7 ag	NPYLR7 ag max-min
COc1ccc(/C=C2\C(=N)N3N=C(Cc4cccs4)SC3=NC2=O)cc1Br	-3	-4
O=S(=O)(c1ccc(/C=C/c2ccc(N3CCOCC3)cc2)s1)N1CCCC1	5	3
Cc1ccsc1C(=O)N(C)C1CCCN(CCc2ccccc2)C1 (stereo not drawn)	4	2

Next entries follow.
SMILES	NPYLR7 ag	NPYLR7 ag max-min
COc1ccc(-c2cc3c(SCc4ccc(F)cc4)nccn3n2)cc1	0	-1
COc1cc(CNc2ccc3[nH]c(=O)[nH]c3c2)ccc1OCc1cccs1	1	-1
COC[C@H]1C[C@H]2C[C@H](O)[C@@H](NC(=O)Nc3ccccc3OC(F)(F)F)[C@@]2(O)CO1	8	21
CCc1ccc(OCC(=O)Oc2ccc([N+](=O)[O-])cc2)cc1	-6	-6
C=CCOc1nc(N2CCOCC2)nc(N2CCOCC2)n1	-1	-4
CCOC(=O)c1cn[nH]c1S(=O)(=O)N1CCN(c2cccc(OC)c2)CC1	1	-4
CCOC(=O)c1c(C)n(CC)c2cc(Br)c(OC)cc12	-11	-20
COCCNC(=O)N(C)C1CCN(Cc2ccccc2)CC1C (stereo not drawn)	2	12
Cc1ccc2oc(C(=O)N(C)Cc3nc(-c4ccncc4)no3)cc2c1	12	8
Oc1ccc(C=NN2CCCCC2)c(O)c1O	4	10
COCc1nc(CNC2CCCC(C)(C)C2)no1 (stereo not drawn)	13	-1
Cc1ccnn1-c1ccc(C(=O)N2CCN(S(=O)(=O)c3cccc4nsnc34)CC2)cc1	4	1
COc1cc(Cl)c(C)cc1NC(=O)C(C)Sc1nnc(CSC)o1 (stereo not drawn)	2	0
CCn1c(CC2CCN(C(=O)c3ccc(CN(C)C)o3)CC2)nn(C)c1=O	19	0
Cc1cc2c(o1)CC(C)(C)CC2NC(=O)NC(C)Cn1ccnc1 (stereo not drawn)	0	-2
COC(=O)CCC(C)N1CCc2[nH]nc(-c3ccccc3F)c2C1 (stereo not drawn)	1	-2
CN(CC(=O)Nc1cccc(Cl)c1)C(=O)c1nccc2ccccc12	12	6
CCOc1ccc(NC(=O)Nc2c(C)nc3cc(C)ccn3c2=O)cc1	2	1
CCc1cc(CN(C)Cc2nc(-c3sccc3C)oc2C)on1	1	-4
CCN(CC)CCn1c(C)cn2c3c(=O)n(Cc4cccc(C)c4)c(=O)n(C)c3nc12	8	4
Cc1cccc(N=C2NC(=O)/C(=C\c3cccs3)S2)c1	-1	-6
Cc1ccnc2nc(C(=O)NCC3COc4ccccc4O3)nn12 (stereo not drawn)	9	6
COc1ccccc1OCCN1CCC(C(=O)NC(c2ccc(-c3ccccc3)cc2)c2cnccn2)CC1 (stereo not drawn)	3	4
O=C(NCC1CN(c2ccc(F)cc2)C(=O)O1)c1ccco1 (stereo not drawn)	2	2
CCOc1nc(-c2ccc(C(F)(F)F)cc2)n(-c2cccc(NS(=O)(=O)c3ccc(F)cc3)c2)n1	24	27
COc1ccccc1-n1ncc2c(C)nnc(SCC(N)=O)c21	-8	-14
Fc1cccc(-n2nnnc2SCc2cc3c(cc2Br)OCO3)c1	9	9
CN(Cc1ccsc1)C(=O)CONC(=O)C(C)(C)c1ccccc1	10	6
CN(Cc1ccccc1)C1CCCN(Cc2ccc3nonc3c2)C1 (stereo not drawn)	1	-1
Cc1c(NC(=O)c2ccc(Cl)c([N+](=O)[O-])c2)cccc1-c1nc2ccccc2o1	6	5
CCc1cc(N2CCN(Cc3ccccc3)CC2)nc(SCc2ccc(C(=O)NCc3ccncc3)cc2)n1	-1	4
CC(C)(C)NC(=O)[C@H]1CC[C@H]2[C@@H]3CC[C@H]4NC(=O)C=C[C@]4(C)[C@H]3CC[C@]12C	-9&-3&7	-18&-7&-9
Cc1csc(Sc2ccc(C(=O)OCC(=O)N3CCNC3=O)cc2[N+](=O)[O-])n1	17	7
O=C(Nc1c2c(nn1-c1ccc(F)cc1)CS(=O)(=O)C2)C1CC(=O)N(c2ccccc2)C1 (stereo not drawn)	-3	-4
COc1cccc(-c2cc(C(=O)NC(C)C)c(C)n2-c2ccccc2)c1	-14	-13
CC1=NN(c2ccccc2)C(=O)/C1=C/c1ccc(-c2cc(Cl)ccc2Cl)o1	-2	-7
CC(C)c1ccccc1-n1ccn(CN(C2CC2)C2CCS(=O)(=O)C2)c1=S (stereo not drawn)	1	9
CCOc1ccc(NC(=O)CSc2ncc(S(=O)(=O)c3ccc(C)cc3)c(=O)[nH]2)cc1	-7	-13
Cc1cc(Cl)ccc1OC(C)c1nnc(SCC2CCCCC2)o1 (stereo not drawn)	15	4
COc1cc(NC(=O)c2cnn3c(C(F)(F)F)cc(-c4ccc(Br)cc4)nc23)c(OC)cc1Cl	9	15
CC(C)NC(=O)C1(C)CCN1CCC(=O)c1ccccc1 (stereo not drawn)	5	3
O=C(CCCS(=O)(=O)c1ccc(Cl)cc1)Nc1ncnc2sccc12	12	8
CCCCCCCCC(=O)N(CC(=O)N(Cc1ccc(F)cc1)Cc1sccc1C)C1CC1	14	19
Cc1cccc(CN2CCN(Cc3ccc(C)c(C)c3)C(=O)C2)n1	8	-1
O=C(Cn1nc2c(c1NC(=O)c1ccccc1Cl)CSC2)NCc1ccccc1	-5	-1
O=C(NCCN1CCS(=O)(=O)CC1)c1cn[nH]c1-c1ccc(F)cc1	5	3
COCCNc1nc(N)c([N+](=O)[O-])c(Nc2ccc(C)cc2)n1	0	-1

High-throughput results from PubChem.
